KSHV LANA nucl = inhibitors of KSHV LANA-nucleosome binding, primary screen, biochemical, fluorescence polarization, FITC-LANA1-23, chicken nucleosomes. FITC-LANA1-23 / chicken nucleosome fluorescence polarization; hits give low values. z-score (concentration not given with the values). actives 0.3% (n = 51,000);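 active = both repeat wells score below -2 in polarization z-score versus plate sample wells, excluding overly bright wells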;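 note: 100 nL library stock added to about 30 µL; numbers are from one replicate; some results filed as inactive read as strong as hits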
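test system = FITC-LANA peptide and chicken nucleosomes | amount = 240 nM purified chicken nucleosomes (480 nM peptide binding sites), final | reagent = 50 nM FITC-LANA1-23 probe | medium = TEN-BT buffer, pH 7.5 | doses = single compound addition by pin transfer, 100 nL per well | timing = 10–45 min, room temperature | detection = fluorescence polarization | repeats = duplicate plates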
Ab BasE inh = BasE siderophore enzyme inhibitors, primary screen, biochemical, Acinetobacter baumannii ATCC 17978, fluorescence polarization. inhibition, % (no concentration beside the values). AID 485350, 2010. actives 0.1% (n = 84,000). purified BasE, fluorescence polarization binding displacement;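 active = both replicates above 25% with normal brightness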;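 note: 0% = negative plate control signal and 100% = positive plate control signal; stock transfer was 100 nL into about 30 µL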
Numbers without * were called inactive; · = not tested or not shown; & = joins results of further samples. The list is partial. The share of hits here may be higher or lower than overall.

smiles | Ab BasE inh | KSHV LANA nucl
N#Cc1ccc(OCC(=O)N/N=C2\CCc3ccccc32)cc1 | 2.9 | ·
O=C1CNc2c(F)c(F)c(F)c(F)c2O1 | -0.8 | ·
Cc1ccc(NC(=O)Cn2nnn(-c3ccccc3)c2=O)cc1C | 2.4 | ·
Cc1cccc(OCc2nnc3n2-c2ccccc2SC3)c1 | -3.1 | ·
Cc1ccc(CC(S)C(=O)O)cc1C (configuration not stated) | 3.2 | ·
N#CCC(=O)NCc1cccs1 | 2.8 | ·
NCC1CCCN(CCO)C1 (configuration not stated) | 3.0 | -0.061
O=C(COc1ccc2ccc(=O)oc2c1)c1ccc2c(c1)OCCO2 | 0.5 | ·
COc1ccc(/C(C)=N/NC(=O)c2cc(C3CC3)[nH]n2)cc1OC | 2.4 | 0.43
O=C(CSc1nncs1)NCCCc1ccccc1 | -3.6 | ·
Cc1cc(C(=O)COc2ccccc2C#N)c(C)n1-c1cccc(S(=O)(=O)N2CCOCC2)c1 | 1.4 | ·
Cc1ccc(-c2nn(CCO)c(=O)c3ccccc23)cc1C | 0.0 | ·
CC(NC(=O)c1ccccc1)c1nnc(SCC(=O)c2ccccc2)n1C (configuration not stated) | -0.5 | -1.1
Fc1ccc(-c2oncc2-c2nnnn2-c2ccc(Cl)cc2)cc1 | 1.4 | ·
Cc1ccc(S(=O)(=O)N2CCN(Cn3nnc(-c4ccccc4)n3)CC2)cc1 | 2.4 | ·
CSc1nnc(-c2ccccc2)n1N | 1.3 | -0.67
COC(=O)c1sccc1-c1ccc(/C=N/OCc2cc(F)cc3c2OCOC3)o1 | 0.7 | -0.047
CC(Oc1ccccc1)C(=O)N1CCN(c2ccc(N3CCCCC3)nn2)CC1 (configuration not stated) | -1.1 | 0.66
CCOC(=O)C(Cc1ccccc1Cl)Sc1nnc(N)s1 (configuration not stated) | 1.1 | 0.48
O=c1c2ccccc2[nH]c(=S)n1CCC1=CCCCC1 | 2.6 | ·

In a second layout: two of the compounds above.
COC(=O)c1sccc1-c1ccc(/C=N/OCc2cc(F)cc3c2OCOC3)o1
  Ab BasE inh: 0.7
  KSHV LANA nucl: -0.047

CC(Oc1ccccc1)C(=O)N1CCN(c2ccc(N3CCCCC3)nn2)CC1 (configuration not stated)
  Ab BasE inh: -1.1
  KSHV LANA nucl: 0.66

Additional entries follow:
smiles | Ab BasE inh | KSHV LANA nucl
Oc1ccc(Br)cc1CNCc1ccccc1 | -0.6 | -0.38
COc1ccc(CCN(C)C2CC(=O)N(c3ccccc3)C2=O)cc1OC (configuration not stated) | 1.4 | 0.27
CCC(=O)NCC(c1ccc(N(C)C)cc1)N1CCOCC1 (configuration not stated) | -1.4 | -0.038
COc1cc(C=Nc2c(C)n(C)n(-c3ccccc3)c2=O)ccc1OC(=O)c1ccco1 | -2.2 | 1.7
CC1=NN(C2CCS(=O)(=O)C2)C(=O)C12Cc1c(C)nn(-c3ccccc3)c1N1CCCCC12 (configuration not stated) | 3.6 | ·
O=C(Nc1ccc2[nH]c(=O)[nH]c2c1)c1cc2ccccc2o1 | -0.6 | -0.16
O=C(Cc1c(Cl)cccc1Cl)NC1=NCCS1 | 0.7 | ·
CC(=O)Nc1nc(C23CC4CC(CC(C4)C2)C3)cs1 | 0.6 | ·
COCCCn1c(SCc2cc(C(=O)OC)c(C)o2)nnc1-c1ccccc1Cl | 1.7 | ·
O=C(O)Cc1sc(-c2ccccn2)nc1-c1cccs1 | -0.8 | ·
CCN(CC(=O)Nc1ccccc1OC)Cc1cc(=O)n2c(-c3ccccc3)csc2n1 | 0.3 | ·
COC(=O)c1cn(Cc2ccc(C(F)(F)F)cc2)cc(F)c1=O | · | -0.066
Cc1cc(C(=O)COc2ccc3oc4ccccc4c3c2)c(C)n1CC1CCCO1 (configuration not stated) | 1.2 | ·
CCN1C(=O)C(C)S/C1=C(/C#N)C(=O)NCc1ccco1 (configuration not stated) | -3.6 | ·
O=C(CCCN=C1NS(=O)(=O)c2ccccc21)Nc1ccccc1N1CCOCC1 | 0.7 | ·
CCNc1nc(NCC)n2c(SCC(=O)N3CC4(C)CC3CC(C)(C)C4)nnc2n1 (configuration not stated) | 0.4 | ·
COc1ccccc1CNC(=O)CN1NS(=O)(=O)c2ccccc2C1=O | -5.4 | ·
CC(C(=O)O)c1ccc(-c2ccccc2)c(F)c1 (configuration not stated) | -0.1&-7.5 | -0.27&1.2&-0.23&0.22&-0.74
CN(c1cnn(-c2ccc(Cl)cc2Cl)c(=O)c1Cl)N1CC(C)(C)C1=O | -2.2 | -0.77
CN=c1scc(-c2ccc(NC(C)=O)cc2)n1C | 0.9 | ·
O=C(NCCc1c[nH]c2ccccc12)c1ccc2c(c1)NC(=O)C1CCCN21 (configuration not stated) | -8.3 | 0.41
COc1ccc(OC)c(C(c2sc3nc(C)nn3c2O)N(C)Cc2ccccc2)c1 (configuration not stated) | 0.8 | 0.47
CC(C)C(NS(=O)(=O)c1ccc(Br)s1)C(C)C | -0.5 | -0.36
Cc1ccc(C)c(C(=O)CSc2nnc(C)s2)c1 | 0.8 | -0.71
Cc1ccc(NC(C#N)c2c(C)[nH]c(=O)[nH]c2=O)cc1 (configuration not stated) | 1.1 | 0.41
OC(C#Cc1ccccc1)C#Cc1ccccc1 | -4.5 | 1.4
CCOc1ccc(NC(=O)Cn2c(=O)n(C3CCCC3)c(=O)c3cc(OC)c(OC)cc32)cc1 | -1.6 | 0.11
O=C(Oc1ccccc1)c1cc(-c2ccccc2)c(C(F)(F)F)s1 | 2.1 | ·
CCOC(=O)c1c(C)csc1NC(=O)CC(=O)C(F)(F)F | 2.6 | -0.42
COc1ccc(C=C2C(=O)OC(C)(C)OC2=O)cc1OC | 1.2 | -0.62
CCOC(=O)CC1C(=O)NCCN1C1CCCCC1 (configuration not stated) | -0.2 | -0.15
CCCCC(CC)CN=C(N)NC(N)=NCCCCCCN=C(N)NC(N)=NCC(CC)CCCC (configuration not stated) | -29&-40 | 1.8&-0.058
O=C1CC(N2CCSCC2)C(=O)N1CCc1ccccc1 (configuration not stated) | 2.1 | 0.51
Cn1c(Cc2ccccc2)n[nH]c1=S | -0.9&-1.0 | -0.78
C1CCN(CC2COC3(CCCC3)O2)CC1 (configuration not stated) | -3.7 | 1.4
CC(C)C(=O)Nc1ccc(NC(=O)C(C)(C)C)cc1 | 0.5 | -0.12
CCCCc1ccccc1NC(=O)NCCC | -0.2 | -1
CN(C)N=Nc1ccccc1C(=O)NCc1ccc(Cl)cc1 | -0.2 | ·
Cn1cc(/C=N/NC(=O)CC#N)c2ccccc21 | 5.5 | -0.32
COCCn1c(-c2ccc3c(c2)NC(=O)CO3)csc1=Nc1ccccc1 | 2.0 | ·
CNC(=O)NC(=O)CSc1nc2ccccc2s1 | 4.1 | ·
CC1(C)CC(=O)C/C(=N/Nc2nc3ccccc3s2)C1 | 0.1 | ·
N#Cc1cnc(N2CCN(c3ccccc3)CC2)nc1N | -0.4 | -0.45
O=C(Nc1ccc(F)cc1)c1oc2ccccc2c1CSc1ncn[nH]1 | 2.7 | ·
COC(=O)Nc1ccc(S(=O)(=O)N(C)C)cc1 | 1.7 | ·
COC(CN(C)C(=O)C1CCC(CNS(=O)(=O)c2ccc(Cl)cc2)CC1)OC (configuration not stated) | -2.5 | 2.7
O=C(CCN1C(=O)c2ccccc2C1=O)Oc1ccc2c3c(c(=O)oc2c1)CCC3 | 2.7 | ·
COc1cc(/C=N\n2c(C)n[nH]c2=S)cc(OC)c1OC | 3.5 | 0.3
Cc1ccc(-c2cc(-c3ccccc3)nc(N3CCCC3)n2)cc1 | -2.1 | 0.43
Cc1cccc(NC(=O)CC(NCc2ccco2)C(=O)O)c1C (configuration not stated) | 0.9 | -0.12
N#CCSc1[nH]c(=O)c(-c2nc(-c3ccccc3)cs2)cc1C#N | 1.8 | ·
Cc1nc(N2CCCC2)[nH]c(=O)c1CCC(C)C | · | -1.1
Cc1ccc(C)c(S(=O)(=O)N2CC3(C)CC2CC(C)(C)C3)c1 (configuration not stated) | -0.4 | ·
CCN(CCO)c1ccc(NC(=S)Nc2ccc(OC)cc2)cc1 | 0.1 | ·
Cc1cc(N2C(=O)CCC2=O)n(-c2ccccc2)n1 | 1.1 | -0.074
Cc1[nH]c2ccc(C(=O)NCCN3CCCCCC3)cc2c1C | -5.2 | 0.51
O=C(COC(=O)C1CCC1)Nc1ccc(F)c(Cl)c1 | -0.1 | ·
CCNC(=S)Nc1sc2c(c1C#N)CCC(C)C2 (configuration not stated) | 0.2 | ·
Cc1ccc(NC(=S)NCCCO)c(C)c1 | 0.7 | -0.3
Cc1c(NC(=O)C23CC4CC(C)(CC(C)(C4)C2)C3)c(=O)n(-c2ccccc2)n1C | 2.1 | -1

Reformatted with values under each structure: part of the list above.
Second line of a record – Ab BasE inh, KSHV LANA nucl
> O=C1CNc2c(F)c(F)c(F)c(F)c2O1
    -0.8, ·
> Cc1ccc(NC(=O)Cn2nnn(-c3ccccc3)c2=O)cc1C
    2.4, ·
> Cc1cccc(OCc2nnc3n2-c2ccccc2SC3)c1
    -3.1, ·

The listing continues:
smiles | Ab BasE inh | KSHV LANA nucl
O=C(CSc1nc2ccccc2[nH]1)c1nnc(-c2ccc(Cl)cc2)o1 | 2.4 | ·
COc1ccccc1-c1cc(=O)n(CC(=O)N2CCC(C(N)=O)CC2)c2c1CCCC2 | -2.3 | 0.82
Cc1cc(C(=O)NCc2cc(F)cc3c2OCOC3)nn1C | -0.1 | ·
O=S(=O)(c1ccc(Oc2ncnc3sccc23)c(Cl)c1)N1CCOCC1 | 0.6 | ·
CCOC(=O)c1c(C)oc2c1c(C=NC1CCS(=O)(=O)C1)c(O)c1ccccc12 (configuration not stated) | 0.7 | ·
Clc1ccc(N2CCN(C3=Cc4ccccc4CC3)CC2)cc1Cl | -1.5 | 0.29
CS(=O)(=O)Nc1cccc(C(=O)OCC(=O)Nc2ccccc2F)c1 | -2.3 | ·
O=C(NCc1ccccn1)NCc1noc2ccccc12 | 4.8 | -0.71
CC1CN(C(=O)CCC2CCCCC2)CC(C)O1 (configuration not stated) | -1.3 | 1.1
C=C(C)[C@H]1CC=C(C(=O)O)CC1 | -0.2 | -0.24
O=C(COn1nnc2ccccc21)NCC1CCCCC1 | 2.7 | ·
CC(=O)OC1CCS(=O)(=O)C1 (configuration not stated) | -1.0 | ·
CCOC(=O)c1nc(C)sc1-c1ccnn1C(=O)c1ccc(OC)cc1 | -1.1 | -0.32
O=C(Oc1ccc(C(=S)N2CCCCC2)cc1)c1ccccc1 | 1.2 | ·
Cc1ccc(S(=O)(=O)N2CCC(C(=O)N=Nc3c(O)[nH]c4ccccc34)CC2)cc1 | 0.4 | -0.63
N#C/C(=N\Nc1ccc(F)cc1)C(N)=S | 1.0 | 0.62
Cn1ccsc1=NC(=O)CCCc1c[nH]c2ccccc12 | -0.7 | ·
O=C(O)/C=C/c1cc(Br)ccc1OC(F)F | 1.3 | ·
COc1ccc(S(=O)(=O)Nc2cccc(-c3nnco3)c2)cc1OC | -1.7 | 0.44
Cc1ccc(-c2cc(C(=O)Nc3cccc(C#N)c3)c3ccccc3n2)o1 | -1.1 | ·

3 entries from above, ordered by the value under KSHV LANA nucl, highest first.
Compound | KSHV LANA nucl
Clc1ccc(N2CCN(C3=Cc4ccccc4CC3)CC2)cc1Cl | 0.29
Cn1cc(/C=N/NC(=O)CC#N)c2ccccc21 | -0.32
N#Cc1cnc(N2CCN(c3ccccc3)CC2)nc1N | -0.45

Going on with the list.
smiles | Ab BasE inh | KSHV LANA nucl
CCC(=O)NCC1COc2ccccc2O1 (configuration not stated) | 1.7 | -0.42
Cc1cc(NC(=O)CSc2nnc(COc3ccc(Cl)cc3C)n2C2CCCCC2)no1 | -2.4 | ·
COC(=O)CC1=NN(c2nc(C)cc(C)n2)C(=O)C1 | 0.9 | -1.6
CC1(C)CC(=O)C(C(N)=NC(=O)c2ccccc2)=C(O)C1 | 0.8 | ·
COc1ccc(C2OC(COc3ccccc3C)=NN2C(C)=O)cc1OC(C)=O (configuration not stated) | -0.1 | -0.69
N#Cc1c(N)n(-c2ccc(S(N)(=O)=O)cc2)c2nc3ccccc3nc12 | -8.1 | ·
COc1ccc(-c2noc(CNC(=O)NC3CCCCC3)n2)cc1 | -1.8 | -0.27
COc1ccc(CN(C)C(=O)c2cc(C)on2)c(OC)c1 | -1.1 | ·
CC1CC(=O)N(CC(=O)N2CCCCC2)c2ccccc2S1 (configuration not stated) | -1.9 | 2
CC12CCC(O)CC1=CCC1C2CCC2(C)/C(=N/N)CCC12 (configuration not stated) | 2.0 | -0.45
CN(Cc1ccccc1)C(=O)Nc1noc2c1COc1ccccc1-2 | 0.6 | -0.68
O=C(/C=C\c1ccco1)Nc1ccc(N2CCN(C(=O)c3ccccc3)CC2)cc1 | 2.9 | -0.53
Cc1oc(C)c2c(=O)ccc3c(c12)OC(N)=C(C#N)C3c1ccc(Br)cc1 (configuration not stated) | -2.6 | -2.1
COC(=O)c1c(C)[nH]c(C(=O)C(C)OC(=O)c2cc(S(=O)(=O)N3CCOCC3)ccc2F)c1C (configuration not stated) | 0.6 | ·
CCn1c(=O)c2cc(C(=O)N(CCC(C)C)Cc3ccco3)sc2c2ccccc21 | -2.2 | 0.46
Cc1nn(-c2ccccc2)c(C)c1P(=O)(c1ccccc1)N(C)C (configuration not stated) | 1.7 | ·
O=C1O[C@H](C(O)CO)[C@H](O)C1O (some centres not stated) | -3.4 | 1.7

Source: PubChem BioAssay (ICCB-Longwood Screening Facility, Harvard Medical School)
